# Bioassay records from PubChem.
# NPYLR7 ag: activates Aedes aegypti NPYLR7 receptor; HEK293T NPYLR7/Galpha15, GCaMP6s calcium fluorescence; activation, % at 10 µM; 270,000 tested, 0.15% active; in the data active = activation above about 40%;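 also: 0% = vehicle and 100% = reference agonist at the receptor; some compounds past the cut are filed as inactive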
# NPYLR7 ag max-min: further read-out of NPYLR7 ag, marked with its call; activation, %; measured here: Max-Min RFU normalised activation; some inactives read as strong as hits;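 span of the calcium signal over five minutes; 0% = vehicle and 100% = native peptide agonist; compound fluorescence can raise it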
# * marks the source's active call; other numbers are inactive results; & = joins results of further samples.
Compound	NPYLR7 ag	NPYLR7 ag max-min
CC(=O)Oc1c(C)c(C)c2c(c1C)CCC(C)(CCCC(C)CCCC(C)CCCC(C)C)O2 (stereo not given)	-12	-23
Cc1ccc(C2=NN(C(=O)CN3CCC4(CC3)OCCO4)C(c3ccccc3F)C2)cc1C (stereo not given)	7	10
CCOC(=O)C1C(=O)CC(C)(O)C(C(=O)OCC)C1c1ccc(OC)cc1 (stereo not given)	-1	-1
CC(C)c1csc(C2CCCN(C(=O)c3ccc4n[nH]c(=O)n4c3)C2)n1 (stereo not given)	7	10
Cc1ccc(C2C(C(=O)c3ccco3)=C(O)C(=O)N2CCN(C)C)o1 (stereo not given)	9&0	5&-3
CS(=O)CC(NC(=O)c1ccncc1F)c1ccccc1 (stereo not given)	10	5
CN(C)CC1CCCCN1C(=O)c1cc(C2CC2)n(C(C)(C)C)n1 (stereo not given)	5	0
CC(c1ccc(S(N)(=O)=O)cc1)N(C)S(=O)(=O)c1ccc(Br)s1 (stereo not given)	20	13
O=C(C1CCCC1)N1CCCC(OCc2ccc(F)cc2F)C1 (stereo not given)	-2	-3
CCOC(=O)C1=C[C@]2(CC)CCCN3CCc4c(n1c1ccccc41)[C@@H]32	-5&-2&4	-10&-6&-20
Cc1ccn(-c2ccccc2CN)n1	18	9
CS(=O)(=O)CCSCc1coc(-c2ccc(F)c(F)c2)n1	10	0
CCC(NC(=O)/C=C/c1ccco1)c1nc(C)cs1 (stereo not given)	4	5
Cn1ccnc1-c1ccc(NCc2cn3c(n2)SCC3)nn1	6	2
COc1cc2c(cc1OC)CN(C1CCCN(Cc3ccc(C#CCCO)cc3)C1)CC2 (stereo not given)	9&2	5&2
O=C1NCC2(CCCN(c3ncnc4c3CCC4)CC2)O1 (stereo not given)	4	0
Cc1n[nH]c(C)c1CCNCc1cn(C)nc1-c1ccc(C2CCCCC2)cc1	11	-1
O=C(OCc1nc(C(=O)NCCc2ccccn2)cs1)c1ccccc1	12	9
Cc1ccsc1C1NC(C(=O)O)CS1 (stereo not given)	1	6
COc1cc(Br)c(C=C(C#N)c2nc3ccccc3[nH]2)cc1OC	1	7

Compound	NPYLR7 ag	NPYLR7 ag max-min
O=C(O)c1cccnc1Sc1ccc2c(c1)OCCO2	0	2
CCOCCCN(CC(=O)c1c(C)c(C(=O)OCC)n(CC)c1C)S(=O)(=O)c1c(C)cc(C)cc1C	-6	2
NC(Cc1ccc(Cl)cc1)c1csc(Nc2cc(NCCCO)ncn2)n1 (stereo not given)	-12	-19
c1ccc2c(c1)COC1(CCCCC1)N2	-3	-4
CCOC(=O)c1[nH]nc(-c2ccc(C)cc2)c1C	-1	8
COc1cc(-c2nc3ccccn3c2NC2CCCCC2)ccc1OC(=O)c1ccc(C)cc1	12	18
COc1c(C)cnc(CN(C)C(=O)c2cnn3cc(C)cnc23)c1C	15	10
N#Cc1cc(S(N)(=O)=O)ccc1NCc1ccc(F)c(Cl)c1	-6	371
CC(C)Nc1ccc(C(=O)NCCc2ccccn2)cn1	-1	2
Cc1cc(NC(=O)CSc2nc3cc(Cl)ccc3c(=O)n2CC(C)C)no1	3	-1
COc1cccc(C(=O)N2CCCC(N3CCN(c4cccc(C(F)(F)F)c4)CC3)C2)c1 (stereo not given)	0	-1
OCCN(C=NC1=NN(c2cccc(C(F)(F)F)c2)CC1)CCO	-5	-8
COc1ncccc1C(=O)NCCC(=O)Nc1cccc(C)c1	6	5
C=CCNCc1cccn1Cc1cccc(F)c1	-8	-21
CCOC(=O)c1ccc(S(=O)(=O)N2CCN(c3nccs3)CC2)cc1	2	1
COc1cc(CCC(=O)Nc2cccc(NC(=O)N3CCCCCC3)c2)cc(OC)c1	-15	-20
COc1cccc(Oc2c(CN(CC(O)Cc3ccccc3)C(C)C)c(-c3ccccc3)nn2C)c1 (stereo not given)	-6	-5
CCCCN(CC(=O)NC(C)(C)C)CC(F)(F)F	3	0
CC(=O)Nc1nc2c(s1)C(=O)CC(C)(C)C2	-8	-14
O=C(NCC1CCCN(Cc2nc(-c3ccccc3)cs2)C1)c1ccco1 (stereo not given)	13	6

Compound	NPYLR7 ag	NPYLR7 ag max-min
Cc1cc(C)n(CCc2nc3cc(NC(=O)c4ccco4)ccc3n2C)n1	-1	15
OCc1csc(COc2ccc(Cl)cc2CNCCN2CCOCC2)n1	19	17
S=c1[nH]c2ccccc2n1Cc1ccc(Cl)cc1Cl	1	49
O=C(c1cc2n(n1)CCN(Cc1ccccc1F)C2=O)N1CCN(C(=O)c2ccco2)CC1	13	1
O=C(NCCC1=CCCCC1)C(=O)c1ccc(C2CCCCC2)cc1	-4	-11
COc1ccc(-c2cc(=O)c3ccccc3o2)cc1OC	-14	-18
c1ccc(-c2ncn(CCCCc3ccccn3)c2-c2ncc[nH]2)cc1	4	2
Cc1nc2ncc3c(=O)n(CCCN4CCOCC4)ccc3n2n1	3	9
CCCN(CC1CC1)C(=O)CCc1nnc(CCc2c[nH]c3ccccc23)o1	14	7
O=C(NCc1ccccn1)c1cc2n(n1)CCN(C(=O)c1cccc3c1OCC3)C2	2	-1
CC1CN(C(=O)CCCSc2nnc(-c3ccc(Cl)cc3)n2-c2ccccc2)CCN1C(=O)c1cccc([N+](=O)[O-])c1 (stereo not given)	-7	-8
CCCCC(=O)Nc1c(-c2cccc(Cl)c2)nc2cc(C)ccn12	-13	-11
Oc1[nH]c2ccc(F)cc2c1N=Nc1ccccc1C(F)(F)F	6	4
CCOc1ccccc1CN(C(=O)c1cc(C)nn1C)C1CC1	-3	-7
CC(C)CN(Cc1csc(COc2ccc(Cl)cc2)n1)C(=O)c1cccs1	-6	5
COc1cccc(C(=O)N2CCN(c3nc(CC(C)C)nc4onc(-c5ccc6ccccc6c5)c34)CC2)c1	-21	-4
CNC(=O)C(C)N(C)C(=O)Cc1sc(C)nc1C (stereo not given)	2	2
COc1ccc(Cl)cc1COC(=O)C1CCN(S(C)(=O)=O)CC1	9	7
COc1cccc(CC2(CO)CCN(C(=O)c3cnn4ccccc34)CC2)c1	2	0
OCC(O)Cn1cnc(-c2ccccc2)c1-c1ccc(Cl)cc1Cl (stereo not given)	5	2

Compound	NPYLR7 ag	NPYLR7 ag max-min
COc1ccccc1C1CC(c2cccc(C)c2)=NN1C(=O)CN1CCCCC1 (stereo not given)	14	15
CCCN(Cc1cnn(C)c1)C(=O)Cc1ccc(OC(F)F)cc1	2	0
COc1cccc(CN2CCn3c(nnc3C(=O)N(C)C)C2)c1F	-1	-2
O=C(c1cc2ncccn2n1)N1CCC(N2CCCC(C(=O)N3CCCC3)C2)CC1 (stereo not given)	0	-3
CCc1ccc(NC(=O)CN2CN(c3ccccc3)C3(CCN(S(=O)(=O)c4cccc(C(F)(F)F)c4)CC3)C2=O)cc1	18	24
CN(Cc1ccccc1)C(=O)[C@@H]1Cc2nc[nH]c2CN1C(=O)c1ccc(C#N)cc1	-5	-11
CCN(C(=O)c1nn(C)cc1[N+](=O)[O-])c1ccccc1	1	-4
CCOCCCn1c(SCc2ccc(Cl)s2)nc2cc(S(=O)(=O)N3CCOCC3)ccc21	8	2
COCCNC(=O)CCc1c(C)nn(-c2nc(C)c(C)c(=O)[nH]2)c1C	10	1
Cc1cc(C(=O)Nc2nc(C(C)(C)C)cs2)c(C)o1	-2	-2
COCC(C)NS(=O)(=O)c1c(C)c(C)cc(C)c1C (stereo not given)	2	-1
OCCCN(CCO)Cc1cc(Br)ccc1Cl	10	7
Cc1cccn2c(CC(=O)NCCC3COc4ccccc4O3)cnc12 (stereo not given)	9	9
Cn1cnnc1CC1CCN(Cc2ccc(Sc3ncn[nH]3)o2)CC1	3	0
COc1ccc(OC)c(C(O)c2ncc(-c3ccc(Cl)cc3)[nH]2)c1 (stereo not given)	0	-1
CN(C(=O)CNC(=O)c1ccco1)C1CCc2ccccc21 (stereo not given)	4	5
OCCSc1ccccc1Cl	9	4
COc1cc(NCCCSc2nnc(C)s2)ncn1	6	5
CNC(=O)[C@@H]1C[C@H](N)CN1C(=O)c1c(C)nn(-c2ccc(F)cc2)c1C	6	3
O=C(/C=C/c1ccco1)N1CCC2(CCCN(CCCc3ccccc3)C2)C1 (stereo not given)	9	0

# Order of values – NPYLR7 ag, NPYLR7 ag max-min
COc1ccccc1NS(=O)(=O)c1cc(C(=O)Nc2ccc(C)cc2)ccc1C
    3, 3
Cc1ccc(NC(=O)Cn2nnc(C(=O)NCCc3ccccc3)c2N)c(C)c1
    -8, -11
Cc1ccsc1C(=O)Cc1ccccc1
    22, 8
O=C(NCC(F)(F)F)c1cccc(Oc2ccccc2)c1
    14, 10
CC(NC(=O)CC1CCCO1)c1ccc(-c2ccccc2)cc1 (stereo not given)
    1, -2
Cc1c(C)n2c(SCC(=O)N3CC(C)OC(C)C3)nnc2[nH]c1=O (stereo not given)
    -12, -9
CCN(CC(=O)Nc1n[nH]c(C(F)(F)F)c1C)c1ccccc1
    1, 2
CCc1c(C(C)O)oc2ccc3c(C)cc(=O)oc3c12 (stereo not given)
    0, -3
CCn1nc(C(=O)O)c2c1CCN(C(=O)CCn1cnc3ccccc31)C2
    5, -16
COc1cc(NC(=O)NCCOc2ccc3nnc(-c4ccccc4)n3n2)cc(OC)c1
    0, -1

# Order of values – NPYLR7 ag, NPYLR7 ag max-min
O=C(c1cccc2ccccc12)C1CCCN(C(=O)c2cccc(Cn3cccn3)c2)C1 (stereo not given)
    2&2, -1&0
CCOC(=O)C1(C)CCN1C(=O)COc1ccc(C(C)(C)C)cc1 (stereo not given)
    -3, -9
CCC(CC)NC(=O)CSc1nc(C)c(C)n1C1CCCC1
    -7, -8
CCC(CC)C(CNC(=O)NCCc1ccccn1)N(C)C (stereo not given)
    -1, -1
O=C(Nc1ccc(-n2nc(OCc3ccc(F)cc3)nc2-c2ccccc2F)cc1)c1cccc([N+](=O)[O-])c1
    19, 19
O=C(CC1(O)C(=O)Nc2ccc(Br)cc21)c1ccccn1 (stereo not given)
    -1, 22
CCCCc1ccc(NC(=O)COc2cc(=O)n(-c3ccc(C)cc3)nc2C(=O)OCC)cc1
    2, -1
CCCn1cnnc1CNc1nc(-c2ccccc2)nc2c1CCNC2
    8, -6
O=c1ccc(C(F)(F)F)cn1Cc1cn(-c2ccc(Cl)cc2)nn1
    -3, 19
O=C(c1ccc(F)c(F)c1)N1CCN(C(=O)c2nc(Cl)ccc2Cl)CC1
    14, 10

# Order of values – NPYLR7 ag, NPYLR7 ag max-min
CC1(C(=O)NS(=O)(=O)c2cccc(F)c2)CCN1C(=O)Cc1ccsc1 (stereo not given)
    3, 0
CCCC(=O)N1CCC(N2CCC(CNS(C)(=O)=O)C2)CC1 (stereo not given)
    -4, -5
CCOc1ccccc1-c1cc(NCCO)nc(N)n1
    11, 8
CCOC(=O)c1cc(-c2ccc(F)cc2)n(C2CCN(C(=O)c3ccco3)CC2)n1
    6, 3
Cc1cc(C)cc(CC(C)NC(=O)C2CCCN2)c1 (stereo not given)
    3, 1
O=C(NNS(=O)(=O)c1cccc(C(F)(F)F)c1)c1csc(N2CCOCC2)n1
    3, 4
O=C(NC1CC1)C1CCCN(C2CCN(c3nccc(C(F)(F)F)n3)CC2)C1 (stereo not given)
    24, 17
Cn1c(CO)cnc1SC1C=CCCC1 (stereo not given)
    -3, 75
Cc1ccc(-c2nc(C(=O)Nc3ccc(C(=O)N4CCCCC4C)cc3C)cs2)o1 (stereo not given)
    0, 8
O=C1N(C2Cc3ccccc3C2)C[C@@H]2C[C@@H](c3ccccn3)N3CCC[C@@]123
    7, 12

# Gathered by group: the entries above containing a furan ring, fused or not.
# Order of values – NPYLR7 ag, NPYLR7 ag max-min
Cc1ccc(C2C(C(=O)c3ccco3)=C(O)C(=O)N2CCN(C)C)o1 (stereo not given)
    9&0, 5&-3
CCC(NC(=O)/C=C/c1ccco1)c1nc(C)cs1 (stereo not given)
    4, 5
O=C(NCC1CCCN(Cc2nc(-c3ccccc3)cs2)C1)c1ccco1 (stereo not given)
    13, 6
Cc1cc(C)n(CCc2nc3cc(NC(=O)c4ccco4)ccc3n2C)n1
    -1, 15
O=C(c1cc2n(n1)CCN(Cc1ccccc1F)C2=O)N1CCN(C(=O)c2ccco2)CC1
    13, 1
Cc1cc(C(=O)Nc2nc(C(C)(C)C)cs2)c(C)o1
    -2, -2
Cn1cnnc1CC1CCN(Cc2ccc(Sc3ncn[nH]3)o2)CC1
    3, 0
CN(C(=O)CNC(=O)c1ccco1)C1CCc2ccccc21 (stereo not given)
    4, 5
O=C(/C=C/c1ccco1)N1CCC2(CCCN(CCCc3ccccc3)C2)C1 (stereo not given)
    9, 0
CCc1c(C(C)O)oc2ccc3c(C)cc(=O)oc3c12 (stereo not given)
    0, -3
CCOC(=O)c1cc(-c2ccc(F)cc2)n(C2CCN(C(=O)c3ccco3)CC2)n1
    6, 3
Cc1ccc(-c2nc(C(=O)Nc3ccc(C(=O)N4CCCCC4C)cc3C)cs2)o1 (stereo not given)
    0, 8

# Carrying on:
# Order of values – NPYLR7 ag, NPYLR7 ag max-min
Cc1ccc(CN2C(=O)CON=C2c2ccccn2)cc1
    -7, -7
CC(=O)Nc1ccc(N2C(=O)CSC2c2ccc(OC(F)F)cc2)cc1 (stereo not given)
    -2, -11
COCCOC(=O)C1=C(C)N(C)C(=O)NC1c1ccccc1[N+](=O)[O-] (stereo not given)
    -5, -5
O=C1OC(/C=C/c2cccc(Cl)c2Cl)=NC/1=C\c1cccs1
    7, 4
COc1cc(=O)n(-c2ccc(C)cc2)nc1C(=O)Nc1ccccc1C(N)=O
    8, 0
COc1ccccc1C(=O)Nc1ccc(Cl)c(-c2nc3cc(C)ccc3o2)c1
    3, -7
Cc1cccc(-c2ncc(CNCCS(=O)(=O)N3CCCC3)cn2)c1
    -3, 5
Cc1ccc(-n2ncc3c(=O)n(NC(=O)c4cccc(C(F)(F)F)c4)cnc32)cc1
    -2, -5
O=C(Cc1ccccc1)Nc1ccnn1C1CCN(Cc2cc3ccccc3s2)CC1
    -2, -4
Cc1ccc(C(c2c(O)cc(C)n(Cc3cccnc3)c2=O)N2CCN(c3ccccc3)CC2)cc1 (stereo not given)
    12, 2
CC(O)CNC(CC(=O)Nc1cccnc1)C(=O)O (stereo not given)
    0, -1

# Not all compounds are listed. The share of hits here may be higher or lower than overall.
